# Assay outcomes as filed in PubChem BioAssay.
# A1 inh: inducers of caspase activity in MEF A1-2A-BIM cells, primary screen, A1 inhibitor project, cell-based, CaspaseGlo luminescence; actives 0.51% (n = 21,000); caspase-Glo luminescence, 3 h; percent of clofoctol signal, DMSO as zero; caspase activation, % (test concentration not listed);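 active = most replicate scores above 10, or exactly half above 10 with mean activity above 10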;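 note: effector caspase 3 and 7 activity cleaving a DEVD luciferin substrate; 50 nL library stock added to about 30 µL; numbers are from one replicate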
# BJeLR viab HTS: BJeLR cell viability loss, primary screen, luminescence, CellTiterGlo ATP; BJeLR fibroblasts viability, 48 h; HRASV12, hTERT and SV40 LT/ST transformed; viability loss activity score, % (test concentration not listed); actives 0.64% (n = 30,000); in the data active = viability loss activity score above about 50%; about a fifth of its hits are not listed in these tables;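 note: higher score means fewer live cells and less ATP luminescence; stock transfer was 50 or 100 nL into about 30 µL; 0% = vehicle wells and 100% = a reference killing control; one replicate is shown; the record names a cut of 85%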
# An asterisk follows results filed as active; . = no result given.
canonical_smiles	A1 inh	BJeLR viab HTS
CCN1C(=O)C(C(=O)N(Cc2ccccc2)Cc2ccccc2)C2CC1(C)Oc1ccccc12 (centres undefined)	0.1	-4.2
CCCc1cc(=O)[nH]c(SCC(=O)NCC23CC4CC(CC(C4)C2)C3)n1	-0.1	0.7
CC(C)(C)C(=O)CSc1nc2c(cc1C#N)N1CCC2CC1	.	3.9
O=C1CC(c2ccccc2)n2nc(NS(=O)(=O)c3ccccc3)nc2N1 (centres undefined)	0.5	1.7
CC1(c2ccc(Cl)cc2)CC(C)(C)N(C(=O)c2cccnc2)c2ccccc21 (centres undefined)	1.1	0.1
Cc1cc(C)c(OCC(=O)Nc2cc(-c3nc4ncccc4o3)ccc2C)c(Cl)c1	-0.4	18
CNC[C@@H]1Oc2ccc(NS(=O)(=O)c3cn(C)cn3)cc2C(=O)N([C@@H](C)CO)C[C@H]1C	0.2	1.8
O=c1c(Br)c(N2CCOCC2)cnn1-c1ccccc1	0.5	2.4
Cc1ccc(NC(=O)CC(NCCc2ccccc2)C(=O)O)cc1 (centres undefined)	0.1	-5.3
C=C1C(=O)O[C@@H]2C=C(C)[C@@H]3CC[C@@](C)(O)[C@@H]3C[C@H]12	-0.7	-12
COc1ccc(OCC(=O)NCc2ccco2)cc1	0.6	-6.7
CC(C)(C)SCc1cccc(C(=O)N2CCN(c3ncccc3C(F)(F)F)CC2)c1	-0.8	-4.4
C=CCn1c(SCC(C)C)nc2sc3c(c2c1=O)CC(C)(C)OC3	-1.9	1.7
COc1ccc(Cc2nnc(SCC(=O)Nc3ccc(OC)cc3)o2)cc1	0.6	-3.1
Cc1cccc(C)c1NCc1n[nH]c(=S)n1-c1ccccc1	.	-0.6
COC(=O)c1c(N)c(C#N)c2n1CCC2	-0.3	-1.0
COc1ccc(S(=O)(=O)Nc2ccc3c(c2)C(=O)N([C@@H](C)CO)C[C@@H](C)[C@@H](CN(C)C)O3)cc1	0.5	0.1
CSc1cccc(NC(=O)CSc2nncn3c2cc2sccc23)c1	0.0	-1.6
CCc1ccc(NC(=O)Cn2nc(-c3ccc(OC)cc3)ccc2=O)cc1	-0.2	-8.3
C[C@H]1CN([C@@H](C)CO)C(=O)c2cc(NC(=O)C3CCCCC3)ccc2O[C@@H]1CN(C)C(=O)Nc1ccc(C(F)(F)F)cc1	1.0	0.1
Cc1cccc(NC(=S)N2CCCCC2)c1	0.1	-0.1
O=c1nc2c(-c3cccc(C(F)(F)F)c3)n[nH]n2c2ccccc12	-0.7	3.3
C[C@@H]1CN([C@H](C)CO)C(=O)c2cc(NC(=O)Nc3ccc(F)cc3)ccc2O[C@H]1CN(C)S(C)(=O)=O	-0.2	5.0
CC(C)n1c(-c2ccccc2)nc2ccccc21	-0.2	-8.4
COc1ccc(C2C(C#N)=C(N)Oc3cc(C)n(CCc4ccc(OC)c(OC)c4)c(=O)c32)cc1 (centres undefined)	0.0	-1.8
CCn1c(CCNC(=O)C2CCCCC2)nc2ccccc21	0.7	1.8
COc1ccc(OC(=O)/C=C/c2sc3ccccc3c2C)cc1	0.3	-4.2
O=C(CCn1c(=S)oc2ccccc21)N1CCn2c(nc3ccccc32)C1	.	1.1
CCn1c(=O)c2cc(C(=O)N(C)CCC#N)sc2c2ccccc21	.	-5.0
COc1ccc(NC(=O)N(C)C[C@@H]2Oc3ccc(NS(=O)(=O)c4c(C)noc4C)cc3C(=O)N([C@@H](C)CO)C[C@H]2C)cc1	0.2	0.5
Cc1ccc(S(=O)(=O)N(C)C[C@@H]2Oc3c(NC(=O)c4cnccn4)cccc3C(=O)N([C@H](C)CO)C[C@@H]2C)cc1	.	-1.3
CCOC(=O)c1cc(C)n(S(=O)(=O)c2ccc(C)cc2)c1C	-0.1	3.6

# An excerpt from above in order of heavy-atom count, rising.
canonical_smiles	A1 inh	BJeLR viab HTS
CCOC(=O)c1cc(C)n(S(=O)(=O)c2ccc(C)cc2)c1C	-0.1	3.6
CCn1c(=O)c2cc(C(=O)N(C)CCC#N)sc2c2ccccc21	.	-5.0
O=C(CCn1c(=S)oc2ccccc21)N1CCn2c(nc3ccccc32)C1	.	1.1
COc1ccc(NC(=O)N(C)C[C@@H]2Oc3ccc(NS(=O)(=O)c4c(C)noc4C)cc3C(=O)N([C@@H](C)CO)C[C@H]2C)cc1	0.2	0.5

# Next section:
canonical_smiles	A1 inh	BJeLR viab HTS
O=C(c1ccccc1)N1CN(C2CCCCC2)Cc2c1sc1c2CCCC1	0.2	-3.2
Cc1ccc(N=Cc2c(Sc3ccc(Cl)cc3)nc3sccn23)cc1	0.7	0.9
C[C@H]1CN([C@@H](C)CO)C(=O)c2cc(NC(=O)Nc3ccc4c(c3)OCO4)ccc2O[C@H]1CN(C)Cc1ccc(C(F)(F)F)cc1	0.5	-2.7
CCc1ccc(N=c2oc3c(C)ncc(CO)c3cc2C(N)=O)cc1	-4.4	3.0
Cc1noc(C)c1NC(=O)N(C)C[C@@H]1Oc2ccc(NC(=O)Nc3ccc4c(c3)OCO4)cc2C(=O)N([C@H](C)CO)C[C@H]1C	0.6	2.1
COc1ccc(NC(=O)Nc2cccc3c2O[C@@H](CN(C)Cc2ccc(C(=O)O)cc2)[C@@H](C)CN([C@H](C)CO)C3=O)cc1	.	-6.2
C[C@@H]1CN([C@H](C)CO)C(=O)c2cccc(NC(=O)c3ccncc3)c2O[C@H]1CN(C)C(=O)Nc1ccccc1	.	-0.7
O=S(=O)(NCC(c1ccccc1)n1cc(-c2ccccc2)nn1)c1ccc(Cl)cc1 (centres undefined)	0.5	-13
CC1=CCC(C(=O)O)(C(=O)NCc2ccccc2)C(c2ccc(Br)cc2)C1 (centres undefined)	0.3	-8.7
O=S(=O)(NC1CCCc2ccccc21)c1ccccc1 (centres undefined)	-0.3	4.0
Cc1cc(S(=O)(=O)Nc2ccc3oc4c(c3c2)CC(C(C)(C)C)CC4)ccc1Cl (centres undefined)	-0.7	1.8
Cc1ccc(Cn2nnc3c(=O)n(CC(N)=O)cnc32)cc1	0.0	-2.3
COc1cc(-c2oc3cc(O)cc(O)c3c(=O)c2OC2OC(CO)C(O)C(O)C2O)ccc1O (centres undefined)	1.2	-1.1
O=C(O)c1csc2c1CCCCC2	0.9	-0.5
C[C@H]1CN([C@@H](C)CO)C(=O)c2cc(NC(=O)Nc3ccc(F)cc3)ccc2O[C@@H]1CN(C)Cc1ccc2c(c1)OCO2	1.3	4.6
C[C@H]1CN([C@@H](C)CO)C(=O)c2cc(NS(C)(=O)=O)ccc2O[C@@H]1CN(C)Cc1ccccc1	0.4	5.9
C[C@@H]1CN([C@@H](C)CO)C(=O)c2cc(NS(C)(=O)=O)ccc2O[C@@H]1CN(C)CC1CC1	-0.1	1.1
Nc1ccc(-c2cc(=O)c3cc(O)ccc3o2)cc1	-3.2	6.7
COc1ccc(NC(=O)N(C)C[C@H]2Oc3ccc(NS(=O)(=O)c4cccs4)cc3C(=O)N([C@H](C)CO)C[C@H]2C)cc1	1.2	-1.6
Cc1ccc(S(=O)(=O)Nc2ccc3c(c2)C(=O)N([C@@H](C)CO)C[C@@H](C)[C@H](CN(C)S(=O)(=O)c2cn(C)cn2)O3)cc1	-0.2	-0.9
C[C@H](CO)N1C[C@H](C)[C@H](CN(C)S(=O)(=O)c2ccc(F)cc2)Oc2ccc(NC(=O)CCCN(C)C)cc2C1=O	0.3	-1.5
NS(=O)(=O)c1ccc(CCn2c(=S)[nH]c3c(sc4ccccc43)c2=O)cc1	-0.3	-3.9
Cc1ccc(S(=O)(=O)N(C)C[C@H]2Oc3ccc(NS(C)(=O)=O)cc3C(=O)N([C@H](C)CO)C[C@@H]2C)cc1	-0.2	-2.8
C[C@@H]1CN([C@H](C)CO)C(=O)c2cc(NS(=O)(=O)c3ccc(Cl)cc3)ccc2O[C@@H]1CN(C)CC1CCCCC1	0.1	-2.5

# An excerpt from further up, for reference:
canonical_smiles	A1 inh	BJeLR viab HTS
CCN1C(=O)C(C(=O)N(Cc2ccccc2)Cc2ccccc2)C2CC1(C)Oc1ccccc12 (centres undefined)	0.1	-4.2
CCCc1cc(=O)[nH]c(SCC(=O)NCC23CC4CC(CC(C4)C2)C3)n1	-0.1	0.7

# Further structures.
canonical_smiles	A1 inh	BJeLR viab HTS
C[C@@H]1CN([C@@H](C)CO)C(=O)c2cccc(NC(=O)Nc3ccc(C(F)(F)F)cc3)c2O[C@H]1CN(C)Cc1ccc(Cl)c(Cl)c1	.	0.6
Cc1ccc(S(=O)(=O)Nc2ccc3c(c2)C(=O)N([C@@H](C)CO)C[C@@H](C)[C@@H](CN(C)C(=O)Nc2ccc4c(c2)OCO4)O3)cc1	0.1	-2.0
C[C@@H]1CN([C@@H](C)CO)C(=O)c2cc(NC(=O)Cc3cn(C)c4ccccc34)ccc2O[C@H]1CN(C)C(=O)Nc1ccc2c(c1)OCO2	-0.4	3.3
CCSc1nnc(C)c2ccccc12	.	-2.8
COc1ccc(/C=N/n2c(=O)c3c(ncn3/N=C/c3ccc(OC)cc3)n(C)c2=O)cc1	-0.3	1.5
C[C@@H]1CN([C@H](C)CO)C(=O)c2cccc(NC(=O)Nc3ccc(C(F)(F)F)cc3)c2O[C@@H]1CN(C)Cc1ccc(C(=O)O)cc1	.	1.5
O=C(NCc1ccccc1)c1cnn(-c2ccccc2)c1-n1cccc1	-0.1	0.8
C[C@H](CO)N1C[C@H](C)[C@H](CN(C)CC2CC2)Oc2ccc(NC(=O)CCCCCC(=O)Nc3ccccc3N)cc2C1=O	.	-1.1
COc1cccc(-n2cc(C(=O)NCCc3ccc(S(N)(=O)=O)cc3)c3ccccc3c2=O)c1	0.0	-1.2
CCCc1c(C#N)c(N)nc(SCCCN2CCN(c3cccc(Cl)c3)CC2)c1C#N	-0.3	2.6
C[C@@H]1CN([C@@H](C)CO)C(=O)c2cccc(NC(=O)C3CC3)c2O[C@@H]1CN(C)C(=O)Nc1ccc2c(c1)OCO2	.	0.0
COc1ccc(S(=O)(=O)Nc2ccc3c(c2)C(=O)N([C@@H](C)CO)C[C@H](C)[C@H](CN(C)Cc2ccc(Cl)c(Cl)c2)O3)cc1	0.0	0.0
CO[C@@H]1C=C[C@@]23c4cc5c(cc4CN(CC2O)[C@H]3C1)OCO5 (some centres undefined)	-1.0	18
Cc1cc(Br)ccc1NCc1ccc2c(c1)OCO2	-1.8	-4.9
Cc1noc(C)c1S(=O)(=O)Nc1cccc2c1O[C@H](CN(C)CC1CC1)[C@H](C)CN([C@@H](C)CO)C2=O	.	-1.4
C[C@H]1CN([C@@H](C)CO)C(=O)c2cc(NC(=O)C3CCCCC3)ccc2O[C@@H]1CN(C)S(=O)(=O)c1cn(C)cn1	0.4	-1.7
C[C@H](CO)N1C[C@H](C)[C@H](CN(C)Cc2ccc(C(=O)O)cc2)Oc2ccc(NS(=O)(=O)c3ccccc3)cc2C1=O	0.8	-3.6
COc1cc([C@H]2OC[C@H]3[C@@H]2CO[C@H]3c2ccc(OC)c(OC)c2)ccc1O	0.2	-8.7
C[C@H](CO)N1C[C@H](C)[C@@H](CN(C)Cc2ccc(Oc3ccccc3)cc2)Oc2c(cccc2N(C)C)C1=O	.	-6.4
C[C@H](CO)N1C[C@H](C)[C@H](CN(C)Cc2ccc(C(=O)Nc3ccccc3N)cc2)Oc2ccc(NC(=O)C3CC3)cc2C1=O	.	12
O=C(OCCN1CCCCC1)c1c[nH]c2ccccc12	0.3	-4.0
C[C@@H]1CN([C@@H](C)CO)C(=O)c2cccc(NC(=O)C3CCCCC3)c2O[C@@H]1CN(C)C(=O)Nc1ccc(F)cc1	.	1.4
CC(CN1CCCCC1)OC(=O)C1c2ccccc2Oc2ccccc21 (centres undefined)	.	-4.7
C=CCN1C(=O)CN2c3ccccc3C(C)(C)C12C (centres undefined)	0.4	15
Cc1noc(C)c1NC(=O)N(C)C[C@@H]1Oc2c(NS(=O)(=O)c3cccs3)cccc2C(=O)N([C@@H](C)CO)C[C@H]1C	.	1.1
Cc1ccc(S(=O)(=O)Nc2cccc3c2O[C@H](CN(C)Cc2ccccc2)[C@@H](C)CN([C@H](C)CO)C3=O)cc1	.	-0.5
CCCC(=O)N1CC(=O)Nc2ccc(C)cc2C1c1ccccc1 (centres undefined)	.	-3.8
C[C@@H]1CN([C@H](C)CO)C(=O)c2cccc(NC(=O)C3CC3)c2O[C@@H]1CN(C)CC1CC1	.	-7.0
C[C@H](CO)N1C[C@H](C)[C@H](CN(C)Cc2ccccc2)Oc2c(NS(=O)(=O)c3cn(C)cn3)cccc2C1=O	.	3.5
CCn1c(=Nc2ccc(C)cc2)ccc2cc(C)ccc21	3.7	30
FC(F)(F)c1ccnc(=S)[nH]1	.	-4.0
O=S(=O)(NCc1ccc(-c2cccs2)cc1)c1ccc(N2CCOCC2)nc1	-0.5	3.7
CCCNc1nc(Cl)nc(NCCC)n1	-0.6	-3.7
C[C@@H]1CN([C@H](C)CO)C(=O)c2cc(NC(=O)Nc3ccc(C(F)(F)F)cc3)ccc2O[C@H]1CN(C)Cc1ccc(C(=O)O)cc1	0.7	-0.8
CC(=C1C(=O)c2ccccc2C1=O)N1CCC(C(N)=O)CC1	0.2	-0.9
CCc1ccc(NS(=O)(=O)c2ccc3[nH]cc(C(=O)N4CCCC4)c(=O)c3c2)cc1	.	-1.8
O=C1CCCC2=C1C(c1cccc(Br)c1)Nc1ccccc1N2 (centres undefined)	.	-0.4

# Not all compounds are listed. The share of hits here may be higher or lower than overall.
